High-throughput results deposited in PubChem BioAssay by Johns Hopkins Ion Channel Center.
KCNQ2 block: KCNQ2 potassium channel inhibitors, primary screen, cell-based, CHO-K1, FluxOR thallium flux, B-score (AID 2156). B-score at 10 µM. 1.1% of 310,000 active. O88943. 20 min; stronger effect = lower value; only compounds with negative scores are shown here; some inactives read as strong as hits;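 active = fluorescence ratio B-score at most minus 3 library SDs, with starting brightness B-score within 2 library SDs, cut at about -5.5 in these data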
Target sequence (O88943 whole entry, looked up): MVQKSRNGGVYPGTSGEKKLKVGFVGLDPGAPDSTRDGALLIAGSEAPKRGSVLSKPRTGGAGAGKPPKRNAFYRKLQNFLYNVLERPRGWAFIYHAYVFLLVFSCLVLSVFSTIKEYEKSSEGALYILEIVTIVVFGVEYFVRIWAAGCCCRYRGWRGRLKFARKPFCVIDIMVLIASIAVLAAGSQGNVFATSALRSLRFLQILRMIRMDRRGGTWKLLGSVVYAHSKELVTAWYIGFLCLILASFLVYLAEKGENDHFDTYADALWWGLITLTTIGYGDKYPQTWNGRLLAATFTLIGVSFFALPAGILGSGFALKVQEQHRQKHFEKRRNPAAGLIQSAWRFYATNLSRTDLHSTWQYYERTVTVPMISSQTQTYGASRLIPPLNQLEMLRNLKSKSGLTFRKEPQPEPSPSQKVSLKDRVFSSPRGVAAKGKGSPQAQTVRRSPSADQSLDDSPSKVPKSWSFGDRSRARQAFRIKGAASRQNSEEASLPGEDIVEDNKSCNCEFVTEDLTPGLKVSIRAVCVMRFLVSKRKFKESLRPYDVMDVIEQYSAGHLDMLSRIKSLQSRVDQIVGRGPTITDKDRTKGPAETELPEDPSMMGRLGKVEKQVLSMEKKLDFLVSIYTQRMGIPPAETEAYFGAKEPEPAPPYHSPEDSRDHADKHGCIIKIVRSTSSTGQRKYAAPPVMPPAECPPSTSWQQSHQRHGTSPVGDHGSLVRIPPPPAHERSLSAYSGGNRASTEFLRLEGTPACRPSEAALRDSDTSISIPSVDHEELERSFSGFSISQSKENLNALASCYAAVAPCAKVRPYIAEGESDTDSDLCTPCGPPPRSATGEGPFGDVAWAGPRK
KCNQ2 block baseline: recorded beside KCNQ2 block, whose call it bears; B-score; measured here: initial fluorescence intensity artifact check;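 brightness before thallium and not channel activity; 0 = typical well and far values either way flag optical interference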
Numbers without * were called inactive; i = inactive.

SMILES | KCNQ2 block | KCNQ2 block baseline
CC(=O)c1ccc(OCCCC(=O)N(CCC2=CCCCC2)c2c(N)n(Cc3ccccc3)c(=O)[nH]c2=O)cc1 | i | 0.02
CCN(CC)S(=O)(=O)c1cccc(NC(=O)/C=C/c2cccc([N+](=O)[O-])c2)c1 | i | 2.9
CCOC(=O)C1CCCN(c2nnnn2-c2ccccc2)C1 (configuration not stated) | i | -3.3
CC(=O)c1ccc(C(=O)N2CCC(n3nccc3NC(=O)C3CC3)CC2)cc1 | i | -0.83
CCn1c(SCC(=O)N/N=C/C=C/c2ccco2)nc2ccccc21 | i | 0.11
COc1ccc(N2CCN(CC(=O)NCc3ccccc3)CC2)cc1 | i | -0.75
COc1cc2c(cc1OC)C1(Nc3c-2c(-c2ccccc2)nn3-c2ccccc2)C(=O)Nc2ccccc21 (configuration not stated) | i | -0.01
COc1ccc(C(=O)NC(C)c2nccs2)cc1OC1CCN(C(C)C)CC1 (configuration not stated) | i | 0.61
CN(CCC#N)C(=O)COC(=O)[C@H](Cc1ccccc1)N1C(=O)c2ccccc2C1=O | i | -0.56
Cc1cc(C)c(S(=O)(=O)NCC(CCC(=O)O)C(F)(F)F)c(C)c1 (configuration not stated) | i | 0.35
C=CCOc1ccc(/C(O)=C2/C(=O)C(=O)N(CCCn3ccnc3)C2c2cccs2)cc1 (configuration not stated) | i | 0.55
CC1CCN(S(=O)(=O)c2ccc(C(=O)N(C)C3CCS(=O)(=O)C3)cc2)CC1 (configuration not stated) | i | 0.05
CCC(CC)C(=O)Nc1cccc(C(=O)c2ccccc2)c1 | i | -0.91
COc1cc(C(=O)N/C(=C\c2cn(C)c3ccccc23)C(=O)N2CCOCC2)cc(OC)c1OC | i | 0.58
Cc1nc2sc3c(c2c(=O)n1/N=C/c1cccnc1)CCCC3 | i | -0.04
CCOc1ccc(N(CC(=O)N2CCN(c3ccccc3OC)CC2)S(=O)(=O)c2ccc(C)cc2)cc1 | i | -0.38
CCC(C)[C@H](NC(=O)N1CCn2c1nc1ccccc12)C(=O)NCc1ccc(OC)cc1 (some centres not stated) | i | -0.67
CS(=O)(=O)CCC(C(=O)Nc1ccc2c(c1)OCO2)N1Cc2ccccc2C1=O (configuration not stated) | i | -0.66
COc1cccc(N2CCN(Cc3nc(N)nc(N4CCCc5ccccc54)n3)CC2)c1 | i | 0.03
COc1ccccc1/C=C1/SC(=S)N(CCC(=O)Nc2cccnc2)C1=O | i | -1.5
O=C(Cc1ccccc1)NCC(=O)Nc1cccc(Br)c1 | i | 0.86
O=c1[nH]cccc1-c1nc2ccccc2n1Cc1ccc(F)cc1 | i | 1.1
CCOC(=O)c1c(O)c2cc(Cl)ccc2n(CC)c1=O | i | -1.4
CS(=O)(=O)N1CCc2cc(C(=O)N3CCCC3)ccc21 | i | 0.08
CCN(CC)CC(=O)Nc1cccc2c1C(=O)c1ccccc1C2=O | i | 2.8

Single records, from the list above. Order of screens: KCNQ2 block	KCNQ2 block baseline
`COc1ccc(C(=O)NC(C)c2nccs2)cc1OC1CCN(C(C)C)CC1` (configuration not stated) is entered as i	0.61
`CCOC(=O)c1c(O)c2cc(Cl)ccc2n(CC)c1=O` is entered as i	-1.4
`COc1ccccc1/C=C1/SC(=S)N(CCC(=O)Nc2cccnc2)C1=O` is entered as i	-1.5
`Cc1nc2sc3c(c2c(=O)n1/N=C/c1cccnc1)CCCC3` is entered as i	-0.04
`CS(=O)(=O)N1CCc2cc(C(=O)N3CCCC3)ccc21` is entered as i	0.08

Next section:
SMILES | KCNQ2 block | KCNQ2 block baseline
COC(=O)COn1c(SC(C)C)nc2ccccc2c1=O | i | 0.01
CC1O[C@@H]2O[C@](O[C@H](C)CC[C@@H](C)O)(c3ccccc3)O[C@@H]2C[C@H]1O (some centres not stated) | i | 0.06
COc1cccc(CNC(=O)CN(C)S(=O)(=O)c2ccc3c(c2)CC(C)N3C(C)=O)c1 (configuration not stated) | i | -0.11
COc1cc(OC)c(NC(=O)c2sc3ncn(CC(=O)N4CCN(c5ccccn5)CC4)c(=O)c3c2C)cc1Cl | i | -1.3
COC(=O)c1ccc(N2CCN(S(=O)(=O)c3ccc(C)cc3)CC2)c([N+](=O)[O-])c1 | i | 0.59
CN(C)c1ccnc(-n2cccc2/C=N/OCc2ccc(F)cc2Cl)c1C#N | i | -0.98
COc1ccc2[nH]c(C(=O)N3CCC(n4nccc4NC(=O)C4CC4)CC3)c(C)c2c1 | i | 1.8
CN1CC(=O)N(CC(=O)Nc2cccc(S(=O)(=O)N3CCOCC3)c2)C1=O | i | 0.45
C/C(CC1CC(COCC(C)C)OC1=O)=N\NC(N)=S (configuration not stated) | i | 1.5
CCCCOC(=O)NC1CCS(=O)(=O)C1 (configuration not stated) | i | -1.2
C#CCn1c(S(=O)(=O)Cc2ccccc2Cl)nc(-c2ccccc2)c1-c1ccccc1 | i | -0.22
Cc1ccccc1C(=O)NCC(=O)OC(C)C(=O)Nc1cccc(S(=O)(=O)N2CCOCC2)c1 (configuration not stated) | i | -0.78
COc1cc(/C=N/NC(=O)COc2ccccc2C)ccc1OC(=O)c1cccs1 | i | -1.8
COCc1cc(C)n(CC(=O)Nc2ccccc2C(=O)OC)c(=O)c1C#N | i | 0.59
O=S(=O)(NCCO)c1cccc2cccnc12 | i | 0.28
O=c1[nH]ncn1-c1ccccc1C(F)(F)F | i | -1.2
Cc1ccc2nc(SC(C)C(=O)NCc3ccco3)[nH]c2c1 (configuration not stated) | i | -0.59
CCCOc1ccc(C(=O)Nc2ccc(CN3CCOCC3)cc2)cc1 | i | 0.64
CCCN(CCC)S(=O)(=O)c1cccc(C(=O)Nc2ccc3c(c2)OCO3)c1 | i | -1.2
CCN(CCCNC(=O)COc1cc(=O)n(C)c2ccccc12)c1cccc(C)c1 | i | -0.83
COc1cc(-c2[nH]ncc2CN2CCN(Cc3cccs3)CC2)cc(OC)c1OC | i | -0.16
Cc1ccc(NC(=O)c2ccc(CN3CC(=O)N4CCCCC4C3=O)cc2)c(C)c1 (configuration not stated) | i | 3.5
COc1ccc(OC)c(-c2nc(C(=O)NCC3CCCO3)cc3c2[nH]c2ccccc23)c1 (configuration not stated) | i | 0.22
O=C(NC1(O)C(=O)c2ccccc2C1=O)c1ccc(C(F)(F)F)cc1 | i | 0.05
O=C1[C@H]2CCCC[C@H]2C(=O)N1CCCCN1CCN(c2nsc3ccccc23)CC1 | i | -0.54
COc1cc2c(cc1OC)CN(c1ccc([N+](=O)[O-])cc1Cl)CC2 | i | 2
O=C(c1ccccc1)N1CCN(Cc2cccc(Oc3ccccc3)c2)CC1 | i | 0.58
CCN(CC1CCCO1)C(=O)c1cc(COc2cc(C)c(Cl)c(C)c2)on1 (configuration not stated) | i | -1.5
O=C(CSc1nnc(NC(=O)c2ccco2)s1)Nc1ccc(F)cc1 | i | 1.3
O=C(NCc1ccco1)C1CCN(C(=O)Cc2ccccc2)CC1 | i | -1.1
CC(C)(C)c1ccc(C(=O)NNC(=S)NC(=O)c2cccnc2)cc1 | i | -1.1
COC(=O)C1=C(C)N(C)C(=S)NC1c1c(OC)ccc2ccccc12 (configuration not stated) | i | -0.1
CCN1/C(=C/c2cccc[n+]2C)Sc2ccc(OC)cc21 | i | 3.6
O=C(NCCO)/C(=C\c1ccc([N+](=O)[O-])o1)NC(=O)c1ccccc1 | i | 0.28
COc1ccc(N2CCCCn3c2nc2c3c(=O)n(C)c(=O)n2C)cc1 | i | -0.14
CCOC(=O)C(C)N1N=C(/C=C/c2ccc(C)cc2)CCC1=O (configuration not stated) | i | -1.1
O=C(NC(=S)Nc1ccc(CN2CCOCC2)cc1)c1cccc(F)c1 | i | -0.05
CC(C)Oc1ccc(C(=O)NC2CCS(=O)(=O)C2)cc1 (configuration not stated) | i | -0.39
CN(C)c1cccc(C(=O)NCc2ccc3c(c2)OCO3)c1 | i | 0.38
CCOC(=O)c1ccc(Nc2ccc([N+](=O)[O-])cn2)cc1 | i | -0.02
O=C(COc1ccccc1)N=C1SC2CS(=O)(=O)CC2N1CCc1ccccc1 (configuration not stated) | i | -0.47
CCOC(=O)CSc1nc2ccc(Nc3nc(N4CCOCC4)nc(N4CCOCC4)n3)cc2s1 | i | 0.04
O=C(O)c1[nH]c2ccccc2c1NS(=O)(=O)c1ccc(F)cc1 | i | 0.89
Cc1onc(-c2ccccc2)c1C(=O)Nc1ccc(S(=O)(=O)N2CCCC2)cc1 | i | 0.05
CCCOc1ccc(N2C(=O)CC(N(Cc3ccc(S(N)(=O)=O)cc3)C(=O)CC)C2=O)cc1 (configuration not stated) | i | -1.6
CCN(C(=O)CN1C(=O)NC2(CCc3ccccc32)C1=O)C1CCCCC1 (configuration not stated) | i | -1.1
COc1ccc(C(=O)NCc2ccc(-c3nc4ccccc4s3)cc2)cc1 | i | 0.63
CC(C)Sc1nc2sccc2c(=O)n1-c1ccccc1 | i | -0.84
O=C(O)/C=C/C(=O)N1Cc2cc3ccccc3nc2C1 | i | -1.1
Cc1ccc(NC(=O)c2ccccc2OCC(=O)c2ccc(F)cc2)cc1 | i | -0.3

Further results.
SMILES | KCNQ2 block | KCNQ2 block baseline
O=C1CSC(=S)N1c1cccnc1 | i | 1.1
COc1ccc(OC)c(C(=O)NC(CC(N)=O)c2ccc(NCCN3CCOCC3)c([N+](=O)[O-])c2)c1 (configuration not stated) | i | 0.63
Cc1ccc(NC2CCCN(C(=O)CCc3scnc3C)C2)cc1C (configuration not stated) | i | 3.1
Cc1oc(-c2cccc(Cl)c2)nc1CN1CCCC(C(=O)NCCCN2CCOCC2)C1 (configuration not stated) | i | 0.12
CCN1CCN(CCn2c(=S)[nH]c3cc4c(cc3c2=O)OCO4)CC1 | i | -0.3
CCOc1ccc(CN2C(=O)c3ccccc3C2C(=O)NC(C)CC)cc1OC (configuration not stated) | i | -0.45
Cc1ccc(N/C=C/C(=O)c2cccs2)cc1C | i | -0.66
CCOC(=O)CN1C(=O)S/C(=C/c2cccc([N+](=O)[O-])c2O)C1=O | i | 0.96
O=C1CN(C(=O)c2ccc(Cl)c(S(=O)(=O)N3CCc4ccccc43)c2)c2ccccc2N1 | i | 0.76
Cc1ccc(C2(C(F)(F)F)N=C3Sc4cc(C)cc(C)c4N3C(=O)N2)cc1 (configuration not stated) | i | -1.2
CCCN(CCC)CCNC(=O)CN1C(=O)COc2ccc(S(=O)(=O)N3CCOCC3)cc21 | i | -0.09
CCCOc1ccc(C2/C(=C(/O)c3ccc(F)cc3)C(=O)C(=O)N2CCCN(C)C)cc1 (configuration not stated) | i | 0.82
CC(=O)N1c2ccc(S(=O)(=O)NCCC(=O)NCc3ccc(F)cc3)cc2CC1C (configuration not stated) | i | 1.9
CC(=O)Nc1ccc(NC(=O)CSc2nccn2Cc2ccc(Cl)cc2)cc1 | i | -2.4
CCC(CC)NC(=O)CON=C1c2ccccc2-c2ccccc21 | i | 0.02
Cn1c(=O)c2c(nc(NN=C3CCCCC3)n2C)n(C)c1=O | i | -0.62
Cc1nn(CC(=O)NCCc2ccc(Cl)cc2)c(=O)c2cccn12 | i | -1.4
Cc1cccc(NC(=S)NCCc2c[nH]c3ccccc23)c1 | i | -0.24
O=C(Cc1ccc(Cl)cc1)c1c[nH]c(C(=O)NCCCn2ccnc2)c1 | i | 2.2
Cc1cccc(C2c3[nH]c4ccccc4c3CCN2C(=O)CN2CCOC2=O)n1 (configuration not stated) | i | -0.69
CCOc1ccc(C(=O)CSCCC(=O)O)cc1 | i | -0.99
Cc1cc(C)cc(-n2nnnc2-c2cn(C)nc2C(F)(F)F)c1 | i | 0.13
CCC1CCCCN1CCCNC(=O)c1ccc(CS(=O)(=O)c2ccccc2OC)o1 (configuration not stated) | i | -0.85
C=CCN1C(=O)C2C(C(=O)NCc3ccccc3)C3(C)C=CC2(O3)C1C(=O)NC(C)(C)C (configuration not stated) | i | -0.33
COc1ccc(C(=O)Nn2cnnc2)cc1 | i | 2.2

Molecules from the list above with a furan ring, fused or not, in the order listed:
SMILES | KCNQ2 block | KCNQ2 block baseline
CCn1c(SCC(=O)N/N=C/C=C/c2ccco2)nc2ccccc21 | i | 0.11
Cc1ccc2nc(SC(C)C(=O)NCc3ccco3)[nH]c2c1 (configuration not stated) | i | -0.59
O=C(CSc1nnc(NC(=O)c2ccco2)s1)Nc1ccc(F)cc1 | i | 1.3
O=C(NCc1ccco1)C1CCN(C(=O)Cc2ccccc2)CC1 | i | -1.1
O=C(NCCO)/C(=C\c1ccc([N+](=O)[O-])o1)NC(=O)c1ccccc1 | i | 0.28
CCC1CCCCN1CCCNC(=O)c1ccc(CS(=O)(=O)c2ccccc2OC)o1 (configuration not stated) | i | -0.85

More compounds.
SMILES | KCNQ2 block | KCNQ2 block baseline
Cc1ccccc1NC(=O)NCc1ccccn1 | i | -0.15
COc1ccc(CC(=O)NC(C)c2ccc3ccccc3c2)cc1 (configuration not stated) | i | -1.3
O=C(CSc1nc2scc(-c3ccco3)c2c(=O)n1-c1ccccc1)N1CCOCC1 | i | -0.3
Cc1cc(C)n(-c2nc3ccccc3nc2N2CCC(C)CC2)n1 | -6.8* | -1.5*
CCOC(=O)C1CCN(C2CCN(C(=O)c3oc4c(C)c(C)ccc4c3C)CC2)CC1 | i | 1.6
C/C(=C\c1ccccc1)C(=O)Nc1nc2ccc([N+](=O)[O-])cc2s1 | i | -0.61
O=C(Nc1nc(-c2ccc(F)c(F)c2)cs1)c1cc([N+](=O)[O-])ccc1N1CCOCC1 | i | 1.4

An excerpt. The share of hits here may be higher or lower than overall.
